# Screens as filed in PubChem BioAssay.
# Bead autofluor = flagged as autofluorescent in microsphere protease counterscreen. compound autofluorescence counterscreen, microsphere flow cytometry; active compounds read high. fluorescence intensity (concentration not given with the values). 360,000 compounds, 3.1% hits;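 active means at least 3 SD above the mean of all compounds, about 16000 in these data; inconclusive means too few beads counted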;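 further: 100 nL of 1 mM stock went into each well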
# Sa RN4220 lethal = growth inhibition of S. aureus RN4220, primary screen, OD600; 16 h; inhibition, % (no concentration beside the values); 330,000 compounds, 0.33% hits;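 active means z-score of -3 or lower and OD600 up to 0.18 on both plates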;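 further: plate controls were untreated cells for no effect and reference antibiotic for full effect; stock transfer was 100 nL into about 80 µL; one replicate is shown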
# Sa ugtP lethal = growth inhibition of ugtP-null S. aureus, primary screen, RN4220 ugtP deletion, OD600 | 16 h; some inactives read as strong as hits | growth inhibition, % (no concentration beside the values) | 330,000 compounds, 0.54% hits | AID 1259309, 2017;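 active means z-score under -3 and OD600 up to 0.15 on both plates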;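 further: plate controls were untreated wells for no effect and antibiotic for full effect; wells of about 80 µL received 100 nL stock; the first replicate is given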
# BJeLR lethal = MLPCN primary cell-based screen for lethality selective to Ras in HRASV12 cells | BJeLR (HRASV12) viability, CellTiter-Glo ATP luminescence, 48 h; reference of the scale not given here | inhibition, % (test concentration not listed) | 300,000 compounds, 0.17% hits | AID 1554, 2009;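 active means replicate mean above 50%; inconclusive means above 50% but judged a plate artefact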;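 further: 50 nL library stock added to about 25 µL; numbers are from one replicate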
# Mtb hypoxia inh = PubChem AID 1159583 | M. tuberculosis hypoxia-regulated fluorescent reporter, fluorescence | fluorescence inhibition, % (no concentration beside the values) | 300,000 compounds, 0.1% hits;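 active means 35 to 45% if threefold the growth effect, above 45% if 1.5-fold the growth effect; inactive means the rest, general growth blockers included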;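 further: wells of about 50 µL received 100 nL stock; 0% = vehicle wells and 100% = reference inhibitor wells; whole bacteria with a GFP reporter of the hypoxia response; strong numbers were not always called active; many hits fall short of the cut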
# PrP UTR inh = inhibition of PrP 5' UTR reporter expression; cell-based PrP 5' UTR mRNA reporter, plate reader; inhibition, % (concentration not given with the values); 340,000 compounds, 0.35% hits;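 active means every replicate at 50% or more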;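 further: 0 = median of the neutral control wells; tested in H4 reporter cells; numbers are from one replicate; inactives centre near -14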
# Mtb hypoxia inh growth = second read-out of Mtb hypoxia inh, no call of its own (marks repeat the call); growth inhibition, %; measured here: M. tuberculosis growth (absorbance);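 0% = vehicle and 100% = reference antibiotic; read after six days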
# * hit, by the source's call; ? = inconclusive; · = no result given.
SMILES,Bead autofluor,Sa RN4220 lethal,Sa ugtP lethal,BJeLR lethal,Mtb hypoxia inh,Mtb hypoxia inh growth,PrP UTR inh
COc1ccc(OCCC(=O)OCC(=O)NC(=O)NC(C)(C)C)cc1,3082,5.9,9.8,5.1,4.5,1.7,3.6
CC(=NNC(=O)COc1ccc([N+](=O)[O-])cc1)c1ccco1,·,5.7,7.0,·,5.8,5.1,·
O=C(CSc1ncnc2scc(-c3ccc(Cl)cc3)c12)NCc1ccc2c(c1)OCO2,?,-15.9,-15.5,-3.5,14.1,2.8,-2.2
CC(=O)Nc1cccc(NC(=O)CSc2ncc(-c3ccc(Cl)cc3)n2Cc2ccco2)c1,4888,-13.5,18.7,4.5,16.0,8.4,-16.9
O=C(NC(Cc1ccccc1)C(=O)O)/C(=C\c1ccc(F)cc1)NC(=O)c1ccco1 (configuration not stated),5137,1.9,5.4,-4.7,-2.1,-2.3,-4.2
CC1CN(C(C)CO)C(=O)c2cccc(NC(=O)Cc3ccccc3)c2OC1CN(C)S(C)(=O)=O (configuration not stated),·,4.7,10.9,·,11.1,2.2,·
Cc1cccc(NC(=O)CNC(=O)c2cccs2)n1,4138,1.2,1.1,-8.6,-6.7,-6.4,-16.9
CCN(CC(=O)Nc1ccc(NC(C)=O)cc1)C(=O)/C=C/c1ccc(S(=O)(=O)N2CCCCCC2)cc1,6047,3.5,2.5,0.5,5.5,9.8,-6.9
O=C(NCCO)C(=O)NCC1OCCCN1S(=O)(=O)c1cc(F)ccc1F (configuration not stated),6251,2.5,1.4,-10.5,14.2,1.5,-1.6
Nc1nc2nonc2nc1N,6382,3.6,15.8,4.4,9.7,1.5,·
O=c1/c(=C\c2ccc3c(c2)OCO3)sc2n1CCCN=2,10163,·,·,0.8,·,·,-83.3
O=C(Nc1ccccc1N1CCCCC1)c1ccc(-c2ccc(Cl)cc2)o1,2817,-21.3,-35.6,34.1,3.6,-3.1,-24.2
CCN(CC)C(=O)CSc1nc2ccccc2c(=O)n1CCC(=O)NCCc1ccc(OC)c(OC)c1,4324,14.8,3.4,11.4,5.6,8.9,-20.9
Cc1cc(C)cc(OC(=O)C23CCC(C)(C(=O)O2)C3(C)C)c1 (configuration not stated),3852,5.8,5.5,-7.4,6.0,5.0,-9.4
CCOC(=O)N1CCC(N2C(=O)c3ccccc3C2Nc2ccccc2)CC1 (configuration not stated),5864,-3.4,-6.8,5.5,1.3,14.1,-8.5
CN(Cc1cccnc1)C(=O)Cc1ccc(NS(=O)(=O)c2cccc(C(F)(F)F)c2)cc1,5322,5.1,11.5,1.7,6.7,4.1,-9.2
Cc1cccc(N2CCN(C(c3ccncc3)c3nnnn3C(C)(C)C)CC2)c1C (configuration not stated),3934,1.0,7.4,-11.6,6.0,1.1,-12.6
O=C(CSc1ncccn1)N/N=C/c1ccccc1[N+](=O)[O-],2479,·,·,-0.8,·,·,-29.1
COc1ccccc1-c1cn(S(=O)(=O)c2ccc(C)cc2)nc1N,3753,8.9,3.1,-3.8,·,·,2.3
CCCn1nc(C(=O)OCC(=O)Nc2ccc(C(N)=O)cc2)c2ccccc2c1=O,3737,4.7,6.1,·,12.4,10.7,-8.9
CCC(=O)Nc1nonc1-c1nc2ccccc2n1Cc1ccccc1,2185,-4.1,-3.5,-10.7,·,·,-6.2
O=C(CC1C(=O)NCCN1Cc1ccc(F)cc1Cl)NCc1ccon1 (configuration not stated),5180,2.7,10.1,-2.1,11.9,0.6,-7.4
CCCCCCN=C(CC)c1c(O)n(CCCC)c(=O)[nH]c1=O,8175,3.3,27.8,0.1,-7.2,0.3,-17.5
CCOC(=O)N1CCN(C(=O)c2cc3c(=O)[nH]c4ccccc4c3s2)CC1,4779,6.5,-2.1,14.1,2.2,8.9,-9.8

# Among those listed so far, two have a tert-butyl group:
SMILES,Bead autofluor,Sa RN4220 lethal,Sa ugtP lethal,BJeLR lethal,Mtb hypoxia inh,Mtb hypoxia inh growth,PrP UTR inh
COc1ccc(OCCC(=O)OCC(=O)NC(=O)NC(C)(C)C)cc1,3082,5.9,9.8,5.1,4.5,1.7,3.6
Cc1cccc(N2CCN(C(c3ccncc3)c3nnnn3C(C)(C)C)CC2)c1C (configuration not stated),3934,1.0,7.4,-11.6,6.0,1.1,-12.6

# Next section:
SMILES,Bead autofluor,Sa RN4220 lethal,Sa ugtP lethal,BJeLR lethal,Mtb hypoxia inh,Mtb hypoxia inh growth,PrP UTR inh
COc1ccc(-n2cnnc2SCC(=O)Nc2ccccc2F)cc1,3445,5.7,4.4,-1.0,-2.3,2.7,-9.9
CC(C)N(Cc1ccccc1)C(=S)NCc1ccccc1,4107,5.4,25.7,1.2,-0.1,1.5,-17.0
COc1cccc(-c2c(-c3cc(OC)cc(OC)c3)n(C)c3ccc(-c4cnc(N5CCOCC5)nc4)cc23)c1,4302,3.6,-10.2,·,45.2*,8.1*,-19.3
CN(C)c1cccc2c1c(NC(=O)Nc1ccc(Cl)cc1Cl)nn2C,6212,3.3,15.8,-9.9,5.5,-0.7,-16.8
CN1CCN(/C=N/c2c(C#N)cnn2C)CC1,3003,·,·,-6.3,·,·,-31.4
CCN1C(=O)C(=O)c2cc(C)ccc21,4466,11.5,4.8,·,9.2,12.3,-36.7
Cc1cc(C(=O)N2CCCCCC2)cs1,23371*,3.1,1.4,3.1,14.7,13.5,-11.8
CN(C)Cc1cccc(-c2ccccc2)c1O,3123,-2.2,-6.1,·,1.5,-4.5,-4.5
CSc1ccc(C=NNc2ccc(Cl)c(C(=O)O)c2)cc1,·,6.7,-2.3,·,6.1,1.1,·
Cc1cc(SCC(=O)NN=Cc2ccccc2C(=O)O)c(C)cc1Br,·,15.1,15.3,·,0.8,-1.8,·
Cc1nc2sc(C(=O)OC(C)C)c(N)c2c(C)c1C,3818,3.6,2.8,-6.2,-3.9,2.0,-96.8
Cc1ccc(C2=N/C(=C\N(C)C)C(=O)O2)cc1,11376,2.6,-1.3,-11.4,15.1,13.5,·
Cc1nc(NC(=O)COC(=O)CNC(=O)c2ccco2)c(Cl)cc1Cl,4772,2.0,-0.3,·,10.6,-2.2,-8.8
COc1ccc(NC(=O)C2CC2)cc1OC1CCCC1,3572,1.8,17.8,3.4,18.2,15.6,-9.4
Cc1ccc(S(=O)(=O)N2CCOC2CNC(=O)C(=O)NCc2ccco2)cc1 (configuration not stated),5181,6.5,-0.7,7.3,1.3,-0.2,8.6
O=C(c1cccs1)N1CCN(C/C=C/c2ccccc2)CC1,2993,·,·,8.2,·,·,-15.5
C=CCN=c1scc(-c2ccc3c(c2)NC(=O)CO3)n1N=C(C)c1ccccn1,·,13.6,25.0,·,-0.1,14.2,·
Fc1ccccc1OCCSc1nnnn1-c1ccccc1,20510*,9.0,3.6,4.7,16.1,11.1,-32.5
O=C(CCc1nc2ccccc2c(=O)[nH]1)OCc1cccc(C(F)(F)F)c1,2552,9.3,2.0,5.3,5.4,-0.9,0.4
CC1CC[C@]2(C(=O)O)CC[C@]3(C)C(=CCC4[C@@]5(C)CCC(O)C(C)(C)C5CC[C@]43C)C2C1C (some centres not stated),·,100.4*,99.7*,·,-2.1,7.7,·
CC1CC(C)CN(C(=O)C(C)N(C)CC(=O)Nc2ccc(Cl)cc2)C1 (configuration not stated),4413,4.1,-8.1,-0.8,-3.2,2.0,-1.6
O=C(CCC1N=C2c3ccccc3N=C(SCc3ccccc3Cl)N2C1=O)NCc1ccco1 (configuration not stated),4350,0.8,13.4,6.9,10.3,8.2,-13.9
Cn1c(=O)oc2cc(NC(=O)CCl)ccc21,4266,1.5,2.5,5.4,·,·,-4.9
C=CCNC(=S)NN=Cc1ccc(N(CC)Cc2ccccc2)cc1,·,1.5,-1.8,·,5.1,11.4,·
O=C1N(c2ccccc2)C2CS(=O)(=O)CC2N1c1ccc(Br)cc1 (configuration not stated),3313,0.2,0.5,9.9,-0.5,-3.3,-14.2
Cc1nn(CC(=O)NC(=O)c2ccccc2)c(C)c1[N+](=O)[O-],3220,-0.4,-1.7,·,-5.3,-1.7,-3.2
CN(CC(=O)NCCCc1ccccc1)S(=O)(=O)c1ccc(Br)cc1,3910,2.2,17.3,-0.2,14.1,2.7,-23.0
CCOC(=O)C(NC(=O)c1ccccc1Cl)(Nc1ccc(C(F)(F)F)cc1)C(F)(F)F (configuration not stated),2021,37.6,-7.6,-5.8,-1.8,-1.2,-34.8
C=CCNc1nc2c3ccccc3n(C(C)=O)c2s1,2760,2.1,0.4,0.4,·,·,-14.5
Cc1ccc(S(=O)(=O)Nc2ccccc2)cc1[N+](=O)[O-],3875,2.3,-0.4,·,6.4,4.7,-12.0
Cc1ccccc1NC(=O)c1sc(Cl)nc1-c1ccccc1,2677,-8.0,-3.4,-5.3,8.6,18.8,-17.1
C=C(C)C(=O)Nc1cccc(C2=NOC3(C2)C[C@H](C(N)=O)N(C(=O)c2ccccc2)C3)c1 (some centres not stated),2854,·,·,-2.2,·,·,3.3
C/C(=N\NC(=O)c1cc2ccccc2cc1O)c1cc2ccccc2o1,3361,·,·,7.1,·,·,-18.0
O=C(COc1cccc2cccnc12)NN=Cc1cccn1-c1ccc(F)cc1,·,3.9,-11.4,·,4.6,5.4,·
Cc1ccc(S(=O)(=O)n2c(=O)oc3ccccc32)cc1,6254,-5.2,-4.8,11.8,3.2,12.2,-35.2
CCCC1(c2ccccc2)NC(=O)N(CC(=O)NCc2ccc(C)cc2)C1=O (configuration not stated),4007,-1.1,16.0,-10.1,14.4,0.8,-21.6
CC(C)c1ccc(C2NC(=O)CCC2[N+](=O)[O-])cc1 (configuration not stated),3681,5.2,7.1,2.2,20.9,5.3,-22.8
COC(=O)c1ccc(SCC(=O)NC2CCCCC2)c([N+](=O)[O-])c1,9084,-0.3,-5.9,4.0,4.7,4.2,-0.6
Cc1onc(-c2c(F)cccc2Cl)c1C(=O)OCC(=O)NC(c1ccccc1)c1ccccc1,11555,-2.4,7.4,-22.1,6.7,12.0,-6.5
CC(=O)c1cc2c(cc1NC(=O)CSc1nc3ccccc3o1)OCO2,2807,-9.9,-4.4,4.4,11.4,8.5,-19.4
C=CCN1C(=O)C(O)(CC(=O)c2ccc(OC)cc2OC)c2cc(Br)ccc21 (configuration not stated),4761,-0.5,-12.6,-8.4,·,·,-6.6
Cn1c(NC(=O)COc2ccccc2)cc(=O)n(C)c1=O,10167,6.8,4.6,2.6,-6.2,-28.0,-10.9
O=C(O)C1CC(=O)N(Cc2cccnc2)C1 (configuration not stated),8606,0.6,1.9,1.3,-1.6,-3.8,4.9
Cc1ccc(N2C(=O)C3CCCN3C2=S)cc1C (configuration not stated),3058,1.8,3.1,-0.9,3.8,10.4,-10.5
COC(=O)c1[nH]c2ccccc2c1NC(=O)CCN1CCN(C2CCCCC2)CC1,·,3.9,-7.3,2.2,-65.5,-4.4,·
COc1cc(CNCCN2CCOCC2)ccc1OCC(=O)NC(C)(C)C,4631,-3.4,0.5,0.3,6.6,-1.2,-45.7
Cc1ccc(C(=O)NCC(=O)OCCCn2c(=O)[nH]c3ccccc32)cc1,5933,6.1,4.6,8.3,-6.7,-2.0,-14.8
CCOC(=O)N1CCN(S(=O)(=O)N2CCCC(C(=O)NCc3ccccc3Cl)C2)CC1 (configuration not stated),5577,3.8,2.4,-4.8,-2.8,2.9,-11.0

# 3 structures from above, sorted by length of the SMILES, largest number first.
SMILES,Bead autofluor,Sa RN4220 lethal,Sa ugtP lethal,BJeLR lethal,Mtb hypoxia inh,Mtb hypoxia inh growth,PrP UTR inh
CC(=O)c1cc2c(cc1NC(=O)CSc1nc3ccccc3o1)OCO2,2807,-9.9,-4.4,4.4,11.4,8.5,-19.4
COc1cc(CNCCN2CCOCC2)ccc1OCC(=O)NC(C)(C)C,4631,-3.4,0.5,0.3,6.6,-1.2,-45.7
CC(C)c1ccc(C2NC(=O)CCC2[N+](=O)[O-])cc1 (configuration not stated),3681,5.2,7.1,2.2,20.9,5.3,-22.8

# Remaining list, next part.
SMILES,Bead autofluor,Sa RN4220 lethal,Sa ugtP lethal,BJeLR lethal,Mtb hypoxia inh,Mtb hypoxia inh growth,PrP UTR inh
CC(C)Oc1ccccc1OCCCCn1cnc2ccccc2c1=O,4374,2.6,6.1,-5.0,16.0,12.0,-7.8
CSCCC(=O)NC1CCCN(CCc2ccccc2)C1 (configuration not stated),3591,1.0,5.6,-2.6,10.5,10.4,-10.5
CCCOc1ccc(OC(=O)c2ccc(Br)o2)cc1,6220,2.9,1.4,14.1,-0.4,-6.2,-14.1
O=C(COC(=O)Cc1ccc(F)cc1)NC1CCCCCC1,6281,1.5,1.1,·,3.4,-0.5,-12.0
CN(CC(=O)Nc1ccccc1Cl)C(=O)COC(=O)c1cnccn1,6601,-1.0,1.2,1.6,1.1,-8.3,-28.0
